Screens (PubChem BioAssay)
RE007 growth inh: less growth of the S. pombe RE007 Vpr strain; S. pombe RE007 Vpr strain, BacTiter-Glo ATP luminescence, 24 h; control for the full effect not named in the record; Potency, µM (series often up to 92.2 µM), for inactives: at the highest dose activity change, negative = less growth; 360,000 tested, 0.21% active; AID 651644; active = well fitted falling curve with a large enough effect; inconclusive = small, poorly fitted or top-dose-only effect; inactive = no such curve, though single readings can be large or run the other way;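 further: on the % scale 0 is the no-effect control and ±100 the full control effect; nearly all actives have a fitted effect of over 50% in size; the assay follows cell death caused by Vpr and the record does not say whether a fall means rescue or toxicity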
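Fission yeast RE007 carrying one integrated HIV-1 vpr copy, seeded at OD 0.01 in PMG+AL medium with 23 nL pinned compound. Grown 24 h at 30 degrees; viability read by BacTiter-Glo luminescence after 5 min.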
Cruzain noTriton: inhibitors of Trypanosoma cruzi cruzain without detergent. P25779. purified cruzain, Z-FR-AMC fluorescence, no detergent. Potency, µM, for the others: max response, negative = inhibition, hits mostly inhibitors. 200,000 tested, 2.3% active. AID 1476; active means well fitted curve in the direction sought with a large enough effect; inconclusive means small, poorly fitted or top-dose-only effect, or another doubt; inactive means no such curve, though single readings can be large; an effect the other way counts as inactive or inconclusive;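 further: plate controls were enzyme without inhibitor for no effect and buffer without enzyme for full effect; nearly all actives have a fitted effect of over 40% in size; top concentration of the series not given in the record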
Target sequence (P25779 123-467 limits assumed): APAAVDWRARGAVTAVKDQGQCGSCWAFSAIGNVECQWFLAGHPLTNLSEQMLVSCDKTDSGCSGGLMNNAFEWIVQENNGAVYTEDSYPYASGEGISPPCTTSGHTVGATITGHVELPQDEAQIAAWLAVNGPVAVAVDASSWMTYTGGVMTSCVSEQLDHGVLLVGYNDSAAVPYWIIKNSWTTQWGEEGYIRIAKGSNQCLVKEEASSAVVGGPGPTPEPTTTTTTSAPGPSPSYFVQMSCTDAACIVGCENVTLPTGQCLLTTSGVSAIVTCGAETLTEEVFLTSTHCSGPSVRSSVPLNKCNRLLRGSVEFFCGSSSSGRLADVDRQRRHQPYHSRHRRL
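Purified cruzain at 1.5 nM, pre-incubated 15 min with compound at room temperature in 100 mM sodium acetate pH 5.5, 5 mM DTT, 0.00005% Triton X-100. Reaction started with 2 uM Z-FR-AMC; AMC fluorescence increase over 60 s gives rate.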
SARS PLpro yeast: SARS-CoV PLP inhibition in yeast. 330,000 tested, 0.19% active. S. cerevisiae expressing SARS-CoV PLpro, growth rescue; control for the full effect not named in the record. Potency, µM (doses to about 32.9 µM), for inactives: top-dose activity, positive = growth rescue. AID 485353; further: 0% is about no effect; nearly all actives have a fitted effect of over 55% in size; growth read by luminescence after 48 h
Cruzain inh Det: blocks cruzain activity in presence of Triton detergent. 200,000 tested, 0.43% active. Potency, µM, for the others: max response, negative = inhibition, most hits filed as inhibitors. purified cruzain, Z-FR-AMC fluorescence, 0.01% Triton. P25779; active means well fitted curve in the direction sought with a large enough effect; inconclusive means small, poorly fitted or top-dose-only effect, or another doubt; inactive means no such curve, though single readings can be large; an effect the other way counts as inactive or inconclusive;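 further: plate controls were neutral wells for no effect and buffer without enzyme for full effect; nearly all actives have a fitted effect of over 40% in size; top concentration of the series not given in the record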
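15 min RT preincubation of 1.5 nM cruzain with compound, then 2 uM Z-FR-AMC added; kinetic AMC fluorescence, 60 s delta. Triton X-100 0.01%, pH 5.5.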
2A StopGo: FMDV 2A StopGo reporter, luciferase signal; Potency, µM (highest dose often 57.9 µM), for the others: top-dose signal change, negative = less light; 410,000 tested, 1.2% active; human cells with a luciferase reporter of 2A StopGo recoding; control for the full effect not named in the record; active = well fitted falling curve with a large enough effect; inconclusive = small, poorly fitted or top-dose-only effect; inactive = no such curve, though single readings can be large or run the other way; tested in HEK293T cells; further: on the % scale 0 is the no-effect control and ±100 the full control effect; nearly all actives have a fitted effect of over 45% in size; luciferase light after 4 h
LASV entry inh: inhibitors of Lassa virus binding or cell entry; Potency, µM (highest dose often 37.9 µM), for the others: at the highest dose activity change, negative = inhibition, hits mostly inhibitors; AID 540256; 300,000 tested, 1.2% active; Lassa virus pseudotype entry inhibition, cell reporter; control for the full effect not named in the record; active means well fitted inhibition curve with a large enough effect; inconclusive means small, poorly fitted or top-dose-only effect, or effect the other way; inactive means flat fitted curve, though single readings scatter; tested in HEK293 cells; further: on the % scale 0 is the no-effect control and ±100 the full control effect; nearly all actives have a fitted effect of over 50% in size; luciferase read-out
NS1 inh: influenza NS1 inhibition; S. cerevisiae slowed by influenza A NS1, growth recovery by OD600; Potency, µM (titrated, usually from 46.1 µM), inactives show at the top dose activity, positive = more growth; 270,000 tested, 0.4% active; further: actives are rising curves; nearly all actives have a fitted effect of over 50% in size
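OD600 was taken as the measure of yeast growth restored by compound in an NS1-expressing S. cerevisiae strain. Cells had been washed out of glucose medium and diluted 1:100 into galactose -URA medium, pH 6.0.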
Marburg entry inh: inhibitors of Marburg virus binding or cell entry; Marburg virus pseudotyped entry inhibition, cell reporter; control for the full effect not named in the record; about a third of the inactives were read at about 46 µM; AID 540276; Potency, µM (titrated, usually from 37.8 µM), for the others: top-dose activity change, negative = inhibition, hits mostly inhibitors; 300,000 tested, 1.8% active; active = well fitted inhibition curve with a large enough effect; inconclusive = small, poorly fitted or top-dose-only effect, or effect the other way; inactive = flat fitted curve, though single readings scatter; tested in HEK293 cells; about a fifth of its hits are not listed in these tables; further: on the % scale 0 is the no-effect control and ±100 the full control effect; luciferase read-out
Starred values were filed as active, the others as inactive; [ ] = another dose, or the depositor's remark. Unless noted, the call rests on the fitted dose curve; in most records, active means well fitted rising curve with a large enough effect; inconclusive means small, poorly fitted or top-dose-only effect; inactive means no such curve, though single readings can be large or run the other way. Potency means the concentration at half of the fitted maximal effect.

Results for O=S(=O)(NCc1csc(-c2cccs2)n1)c1cccs1 ?
RE007 growth inh: -12%; SARS PLpro yeast: -1%; 2A StopGo: 21%; LASV entry inh: inconclusive; NS1 inh: -6%; Marburg entry inh: 0%[46.1 µM]

Results for COc1ccccc1NC(=O)N1C[C@@H]2C[C@@H](C1)c1cccc(=O)n1C2 ?
RE007 growth inh: 0%; SARS PLpro yeast: 6%; 2A StopGo: -16%; NS1 inh: -4%

How did CCC(=O)c1cn(CCOc2ccccc2OC)c2ccccc12 do in these assays?
RE007 growth inh: 7%; SARS PLpro yeast: 0%; 2A StopGo: inconclusive; LASV entry inh: -27%; NS1 inh: -50%; Marburg entry inh: inconclusive

How did CCc1cccc(NC(=O)C2Cc3ccccc3N2C(=O)c2ccccc2)c1 (stereo not drawn) do in these assays?
Cruzain noTriton: -6%; Cruzain inh Det: 1.8%; 2A StopGo: -20%; LASV entry inh: 1%[46.1 µM]

Results for O=C(CSc1cccc2cccnc12)Nc1cc(C(=O)O)cc(C(=O)O)c1 ?
RE007 growth inh: 3%; SARS PLpro yeast: 2%; 2A StopGo: -11%; LASV entry inh: 26%[46.1 µM]; NS1 inh: 8%; Marburg entry inh: 14%[46.1 µM]

What do the screens show for `CCOC(=O)CCNC(=O)N1CCCC(C(=O)c2cccc(OC(C)C)c2)C1` (stereo not drawn)?
RE007 growth inh: -16%; SARS PLpro yeast: -2%; 2A StopGo: -19%; LASV entry inh: -39%; NS1 inh: -24%; Marburg entry inh: -10%

What do the screens show for `Cc1ccc(NC(=O)c2ccc(F)c(S(=O)(=O)NCCc3ccccc3)c2)cc1F`?
Cruzain noTriton: -12%; Cruzain inh Det: -1.7%; 2A StopGo: 2%; LASV entry inh: inconclusive

What do the screens show for `N#Cc1ccc(NC(=O)Cn2cnc(S(=O)(=O)N3CCCC3)c2)cc1`?
RE007 growth inh: 9%; SARS PLpro yeast: -5%; 2A StopGo: -10%; NS1 inh: -2%

Results for S=C(NCCc1ccccc1)Nc1ccc(Br)cn1 ?
RE007 growth inh: -15%; SARS PLpro yeast: 2%; 2A StopGo: -12%; LASV entry inh: -10%; NS1 inh: -3%; Marburg entry inh: -4%[46.1 µM]

What do the screens show for `Cc1ccc(/C=N/Nc2ccccn2)s1`?
RE007 growth inh: -12%; SARS PLpro yeast: -1%; 2A StopGo: 52%[activator]; LASV entry inh: inconclusive; NS1 inh: 0%; Marburg entry inh: inconclusive

What do the screens show for `CCCC(=O)NC(=S)Nc1ccc(C(C)=O)cc1`?
RE007 growth inh: -18%; Cruzain noTriton: 5%; SARS PLpro yeast: -12%; Cruzain inh Det: 0.6%; 2A StopGo: 35%[activator]; LASV entry inh: inconclusive; NS1 inh: -13%; Marburg entry inh: -1%

Results for Cc1ccc(NC(=O)c2sc3ncn(CC(=O)N4CCOCC4)c(=O)c3c2C)c(Br)c1 ?
RE007 growth inh: 1%; SARS PLpro yeast: -1%; 2A StopGo: -28%; NS1 inh: 8%

Results for Cc1ccsc1C(=O)Nc1ccc(O)c(-c2nc3ccccc3s2)c1 ?
RE007 growth inh: -2%; SARS PLpro yeast: 0%; 2A StopGo: 28%; LASV entry inh: 13%; Marburg entry inh: 16%

Results for Cc1ccc(NC(=O)CS(=O)CC(=O)NCCCc2ccccc2)cc1Cl (stereo not drawn) ?
RE007 growth inh: -1%; Cruzain noTriton: inconclusive; SARS PLpro yeast: 1%; Cruzain inh Det: 5.1%; LASV entry inh: inconclusive; NS1 inh: 9%; Marburg entry inh: -11%

Results for O=C(CCS(=O)(=O)c1cccs1)NC1CCCCCC1 ?
RE007 growth inh: -11%; Cruzain noTriton: 7%; SARS PLpro yeast: -4%; Cruzain inh Det: 3.8%; 2A StopGo: 69%[activator]; LASV entry inh: inconclusive; NS1 inh: 0%; Marburg entry inh: inconclusive

What do the screens show for `O=C(O)/C(=N/NC(=O)c1ccc(Cl)cc1)c1ccccc1`?
RE007 growth inh: -7%; SARS PLpro yeast: 0%; 2A StopGo: 2%; NS1 inh: 0%

What do the screens show for `CCOCCCNC(=S)N1CCC(C(=O)c2ccc3c(c2)OCCO3)CC1`?
RE007 growth inh: -3%; SARS PLpro yeast: 8%; 2A StopGo: -7%; LASV entry inh: -5%[46.1 µM]; NS1 inh: -4%; Marburg entry inh: -2%[46.1 µM]

Results for CSc1ccc(S(=O)(=O)Nc2ccc(OCC(=O)N3CCOCC3)cc2)cc1 ?
RE007 growth inh: 1%; SARS PLpro yeast: 1%; 2A StopGo: 6%; LASV entry inh: 3%; NS1 inh: -3%; Marburg entry inh: 5%[46.1 µM]

Results for OCCC1CN(Cc2cn[nH]c2C2CCCCC2)CCN1Cc1ccccc1 (stereo not drawn) ?
RE007 growth inh: -23%; SARS PLpro yeast: 1%; 2A StopGo: 5%; LASV entry inh: 23%[46.1 µM]; NS1 inh: 4%; Marburg entry inh: inconclusive

Results for CCSC(=O)N1CCCCCC1 ?
RE007 growth inh: 14%; Cruzain noTriton: -5%; SARS PLpro yeast: -10%; Cruzain inh Det: 0.3%; 2A StopGo: -26%

Results for COc1ccccc1C(=O)NC(CCSC)C(=O)OCC(=O)N1CCN(S(=O)(=O)c2ccc(C)cc2)CC1 (stereo not drawn) ?
RE007 growth inh: -4%; 2A StopGo: inconclusive; LASV entry inh: -5%; Marburg entry inh: 6%

What do the screens show for `CCNC(=O)Nc1cc(OC)c(OC)cc1C(=O)O`?
RE007 growth inh: 8%; SARS PLpro yeast: 4%; 2A StopGo: -8%; NS1 inh: 0%

What do the screens show for `Clc1ccc(-c2nnc(NC3=NCCCCC3)o2)cc1`?
RE007 growth inh: -18%; Cruzain noTriton: -1%; SARS PLpro yeast: -3%; Cruzain inh Det: -1.0%; 2A StopGo: -87%; LASV entry inh: inconclusive; NS1 inh: -5%; Marburg entry inh: 1.6µM*

What do the screens show for `CC(=O)Nc1ccc(C)cc1-c1nc2ccccc2n(CC(=O)c2ccc(Cl)cc2)c1=O`?
Cruzain noTriton: 7%; Cruzain inh Det: -2.7%; 2A StopGo: -22%; LASV entry inh: inconclusive; Marburg entry inh: 9%[46.1 µM]

What do the screens show for `Cc1cccc2sc(N3CCN(C(=O)c4cccs4)CC3)nc12`?
RE007 growth inh: -24%; SARS PLpro yeast: -14%; 2A StopGo: inconclusive; LASV entry inh: -7%; Marburg entry inh: -8%

Results for ONC(=Nc1ccccc1)c1ccccc1Cl ?
RE007 growth inh: 14%; Cruzain noTriton: -3%; SARS PLpro yeast: 0%; Cruzain inh Det: 2.3%; 2A StopGo: 13%; LASV entry inh: 3%; NS1 inh: -6%; Marburg entry inh: inconclusive

Results for CCn1c(NN=O)nc2ccccc21 ?
RE007 growth inh: 6%; SARS PLpro yeast: 0%; 2A StopGo: -12%; LASV entry inh: inconclusive; NS1 inh: 3%; Marburg entry inh: inconclusive

How did O=C(CCC(=O)c1cccs1)Nc1nnc(C2CC2)s1 do in these assays?
RE007 growth inh: -10%; Cruzain noTriton: 6%; SARS PLpro yeast: -1%; Cruzain inh Det: 1.3%; 2A StopGo: 25%; LASV entry inh: 0%; NS1 inh: 1%; Marburg entry inh: 0%

How did CC(/C=C/c1ccco1)=N\NC(=O)c1cccc(Cl)c1 do in these assays?
RE007 growth inh: -15%; Cruzain noTriton: -10%; SARS PLpro yeast: 7%; Cruzain inh Det: -9.6%; 2A StopGo: 20%; LASV entry inh: -5%; NS1 inh: -2%; Marburg entry inh: -7%

What do the screens show for `CC(=O)Nc1nnc(COc2ccccc2)s1`?
RE007 growth inh: -8%; SARS PLpro yeast: 0%; 2A StopGo: 45%[activator]; NS1 inh: -3%

How did CC[n+]1ccc(C)c2cc(P(=O)(c3ccccc3)c3ccccc3)ccc21 do in these assays?
RE007 growth inh: -23%; SARS PLpro yeast: -5%; 2A StopGo: 2%; LASV entry inh: 7%[46.1 µM]; NS1 inh: 2%; Marburg entry inh: 4%[46.1 µM]

How did CCOc1ccc(C(=O)OCc2cc(=O)n3nc(C4CCCCC4)sc3n2)cc1 do in these assays?
Cruzain noTriton: -7%; Cruzain inh Det: -0.6%; 2A StopGo: inconclusive; LASV entry inh: 10%[46.1 µM]

Results for Cc1ccc(NC(=O)/C(C#N)=C/c2ccc(C)s2)c(C)c1 ?
RE007 growth inh: -3%; Cruzain noTriton: 0%; SARS PLpro yeast: 11%; Cruzain inh Det: 4.7%; 2A StopGo: 44%[activator]; LASV entry inh: 13%; NS1 inh: 1%; Marburg entry inh: 26%

How did COC(=O)c1ccc(S(=O)(=O)N2CCOCC2)o1 do in these assays?
RE007 growth inh: 8%; SARS PLpro yeast: -1%; 2A StopGo: -11%; NS1 inh: 1%

How did Cc1cc(C)c(NC(=O)CSc2nc3ncc(Br)cc3[nH]2)c(Cl)c1 do in these assays?
RE007 growth inh: 9%; SARS PLpro yeast: 6%; 2A StopGo: -21%; NS1 inh: -3%

How did O=C(NCCc1ccccc1Cl)c1ccc(Cn2c(=O)c3cccn3c3cccnc32)cc1 do in these assays?
Cruzain noTriton: -2%; Cruzain inh Det: 2.3%; 2A StopGo: -10%; LASV entry inh: -19%[46.1 µM]

How did CN(C)c1ccc(C(C#N)c2ccccc2)nn1 (stereo not drawn) do in these assays?
RE007 growth inh: 1%; SARS PLpro yeast: 1%; 2A StopGo: 4%; LASV entry inh: -1%; Marburg entry inh: inconclusive

Results for O=C(NCCc1ccccc1)c1ccc(Cl)c(S(=O)(=O)N2CCCC2)c1 ?
RE007 growth inh: 6%; SARS PLpro yeast: -5%; 2A StopGo: -7%; NS1 inh: -22%

What do the screens show for `CC(C(=O)NCc1ccc2c(c1)OCO2)N(c1ccccc1)S(C)(=O)=O` (stereo not drawn)?
RE007 growth inh: -13%; Cruzain noTriton: 3%; SARS PLpro yeast: 2%; Cruzain inh Det: 2.2%; 2A StopGo: -14%; LASV entry inh: 8%; NS1 inh: -1%; Marburg entry inh: -2%

How did COc1ccc(C2=NN(CCC(=O)NCCc3ccccc3)C(=O)CC2)cc1 do in these assays?
Cruzain noTriton: 8%; Cruzain inh Det: 1.1%; 2A StopGo: 2%; LASV entry inh: -29%[46.1 µM]

Results for Cc1ccccc1OCC(=O)N1CCC(c2nc3ccccc3s2)CC1 ?
Cruzain noTriton: 16%; Cruzain inh Det: -9.2%; 2A StopGo: -28%; LASV entry inh: 9%[46.1 µM]; Marburg entry inh: 13%[46.1 µM]
